FGF22 binding = binders of human FGF22 protein, primary screen, FGF22 synaptogenesis inhibitor project, biophysical, thermal shift, single point; Fibroblast growth factor 22 (Homo sapiens), Q9HCT0; recombinant FGF22 thermal shift, SYPRO orange fluorescence; percent of sucrose octasulfate shift, DMSO zero; calls only at 9.99 µM; 340,000 tested, 1.5% active;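 active = melting point raised past a set limit in the mean and every replicate; three in four hits are not shown here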
Target sequence (Q9HCT0 whole entry, looked up): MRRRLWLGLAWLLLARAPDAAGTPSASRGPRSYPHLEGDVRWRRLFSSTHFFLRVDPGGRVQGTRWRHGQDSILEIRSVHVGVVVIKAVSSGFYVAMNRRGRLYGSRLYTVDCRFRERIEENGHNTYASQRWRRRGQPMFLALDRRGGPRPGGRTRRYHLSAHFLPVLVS
Beta cell apopt = inhibitors of cytokine-induced beta cell apoptosis, primary screen, luminescence; INS-1E cytokine-induced death, ATP luminescence, 48 h; percent of positive-control rescue, neutral wells zero; protection from apoptosis, % (test concentration not listed); 300,000 tested, 0.8% active; AID 435005, 2010;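 active = all replicates at 75% or more, or half of them and the mean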;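 note: 0% = cytokine-treated negative control wells and 100% = positive control rescue; higher means more ATP so stronger rescue from cytokine killing; wells of about 40 µL received 100 nL stock; the first replicate is given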
T cruzi inh = inhibitors of intracellular T. cruzi growth, primary screen, luminescence, NIH3T3 host cells; T. cruzi beta-gal in NIH3T3, 90 h; inhibition, % (no concentration beside the values); 300,000 tested, 1.4% active;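 active = mean inhibition across valid replicates above about 55%, limit read from the data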;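 note: signal also drops with host cell toxicity which is not excluded here; 0% = plate median of DMSO wells and 100% = zero luminescence signal; higher percent means less beta-gal luminescence so fewer parasites; stock transfer was 50 nL into about 50 µL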
MLL AF4-AF9 inh = inhibitors of AF4 peptide binding to AF9, primary screen, biochemical, AlphaScreen, biotin-AF4 peptide, FLAG-AF9, single point | AID 651704, 2012 | 350,000 tested, 0.47% active | Protein AF-9 (Homo sapiens), P42568 | inhibition, % at 10 µM;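 active = every replicate reaching a set inhibition limit, whatever the replicate mean, cut at about 25% in these data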;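 note: 0% = plate neutral control median and 100% = total signal loss; the record names both 10 and 1 µM as test concentration; the first replicate is given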
Target sequence (P42568 whole entry, looked up): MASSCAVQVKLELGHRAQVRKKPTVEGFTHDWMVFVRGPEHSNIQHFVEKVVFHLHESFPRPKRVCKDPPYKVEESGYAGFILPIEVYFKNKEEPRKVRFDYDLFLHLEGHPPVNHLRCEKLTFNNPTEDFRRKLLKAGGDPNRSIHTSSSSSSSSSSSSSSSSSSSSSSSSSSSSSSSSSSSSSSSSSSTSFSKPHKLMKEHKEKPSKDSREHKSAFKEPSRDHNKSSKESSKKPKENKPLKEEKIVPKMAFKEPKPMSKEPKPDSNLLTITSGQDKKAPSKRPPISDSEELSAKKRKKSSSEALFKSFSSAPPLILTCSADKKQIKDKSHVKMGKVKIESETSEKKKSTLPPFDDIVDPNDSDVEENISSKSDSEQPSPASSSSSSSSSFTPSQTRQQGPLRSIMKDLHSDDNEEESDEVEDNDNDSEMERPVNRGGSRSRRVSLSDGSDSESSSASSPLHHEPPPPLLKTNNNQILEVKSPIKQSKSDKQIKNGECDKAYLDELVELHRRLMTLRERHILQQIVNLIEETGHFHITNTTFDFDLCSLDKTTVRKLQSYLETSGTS
UCH37 DUB inh = inhibitors of human UCH37 deubiquitinase, primary screen, biochemical, Ub-AMC cleavage, fluorescence; Ubiquitin carboxyl-terminal hydrolase isozyme L5 (Homo sapiens), Q9Y5K5; purified proteasome/UCH37; inhibition, % (no concentration beside the values); 330,000 tested, 0.33% active; AID 588478, 2011;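 active = mean of two replicates above 20%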;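 note: 0% = compound-free wells with enzyme and 100% = wells lacking proteasome; stock transfer was 100 nL into about 20 µL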
Target sequence (Q9Y5K5 whole entry, looked up): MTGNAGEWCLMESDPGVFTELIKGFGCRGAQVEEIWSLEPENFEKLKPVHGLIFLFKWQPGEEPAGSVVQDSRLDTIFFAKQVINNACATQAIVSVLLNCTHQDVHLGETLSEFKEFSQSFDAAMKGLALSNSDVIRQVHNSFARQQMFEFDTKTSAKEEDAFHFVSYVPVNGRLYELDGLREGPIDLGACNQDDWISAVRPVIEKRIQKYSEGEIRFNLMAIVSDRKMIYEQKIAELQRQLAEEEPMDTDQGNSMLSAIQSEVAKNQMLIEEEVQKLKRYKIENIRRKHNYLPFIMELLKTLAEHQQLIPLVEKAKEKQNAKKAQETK
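assay system = human UCH37 enzyme supplied as purified proteasome complex | amount = proteasome at 0.15 nM in the dispensed enzyme solution | schedule = 30 min compound-proteasome preincubation then 25 min substrate reaction, room temperature | measured by = fluorescence, ex 355 nm, em 460 nm | benchmarks = no-proteasome wells (full inhibition) and compound-free wells (no inhibition)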
A1 inh = caspase 3/7 activation in MEF A1-2A-BIM cells, primary screen, A1 inhibitor project, cell-based, luminescence, HTS; Caspase-Glo 3/7 luminescence, 3 h; percent of clofoctol response, vehicle zero; caspase activation, % (test concentration not listed); 330,000 tested, 0.066% active;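 active = over half of replicate activation scores above 10%, or exactly half above 10 with the replicate mean above 10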;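 note: wells of about 30 µL received 50 nL stock; many hits fall short of the cut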
rRNA inh HTS = reduced GFP signal of wild-type E. coli, primary screen, bacterial rRNA inhibitor project, GFP/RFP fluorescence, OD600, single point; 350,000 tested, 1.6% active; GFP signal change (wild-type ribosome), % (concentration not given with the values); E. coli WT GFP vs humanized-ribosome RFP mutants, 24 h; stronger effect = lower value; DMSO median 0, no signal -100; AID 720706, 2013;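 active = significant combined selectivity score with lowered wild-type GFP, culture density cut under 30%, mutant RFP and density less affected; inactive = any of these conditions unmet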; note: one replicate is shown; some compounds called inactive have numbers as strong as hits
Ecoli growth = E. coli growth inhibition, primary screen, OD600 | 330,000 tested, 0.21% active | AID 1053175, 2014 | OD600 absorbance (no concentration beside the values) | Escherichia coli growth, 23 h; stronger effect = lower value;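 active = OD600 absorbance below the run mean of sample wells minus 3.6 SD, in any replicate, cut at about 0.56 in these data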;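 note: stock transfer was 300 nL into about 60 µL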
rRNA inh HTS OD600 = also measured in rRNA inh HTS; calls as there; OD600 change, %; measured here: OD600 growth;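 optical density of the mix in the first replicate; 0 = DMSO median and -100 = no signal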
rRNA inh HTS RFP = further read-out of rRNA inh HTS, marked with its call; RFP signal change, %; measured here: RFP humanized mutant strains;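 first replicate; 0 = DMSO median and -100 = no signal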
An asterisk follows results filed as active; i = inactive; . = not tested or not shown.

SMILES	FGF22 binding	Beta cell apopt	T cruzi inh	MLL AF4-AF9 inh	UCH37 DUB inh	A1 inh	rRNA inh HTS	rRNA inh HTS OD600	rRNA inh HTS RFP	Ecoli growth
CC1C(=O)N2CCCc3cc(NC(=O)c4ccccc4C(F)(F)F)cc1c32 (centres undefined)	i	-1.6	-6.8	0.3	-2.6	0.0	6.2	-2.8	0.7	0.709
O=[N+]([O-])c1ccc(NN=Cc2ccccc2)nc1	i	.	.	0.9	-1.9	.	-1.5	6.0	0.3	0.716
CN(CC(=O)Nc1cccnc1)S(=O)(=O)c1ccc(Br)cc1	i	-0.3	-1.1	-6.2	1.2	0.2	-1.4	5.0	-0.8	0.674
C/C(=N\OCC(=O)Nc1cc(C)cc(C)c1)c1ccc2c(c1)OCCO2	i	-3.7	7.8	-1.7	.	-0.1	.	.	.	.
CCCC(=O)Nc1cccc(-c2nc3ccccc3o2)c1	.	-6.1	-1.0	.	0.9	-4.2	.	.	.	0.761
Cc1nn(C)c(C)c1CN(Cc1nc(-c2ccc(F)cc2F)oc1C)C1CC1	.	-2.7	6.4	1.7	0.0	0.1	4.8	-2.4	3.6	0.695
CCNc1nc(-c2cc3ccccc3o2)cs1	.	-12.4	-3.8	13.2	2.4	-0.2	7.6	10.8	2.2	0.684
COc1ccc(-c2noc(-c3ccccc3C(=O)Nc3cccnc3)n2)cc1OC	.	11.4	-5.3	.	0.7	-0.7	.	.	.	0.672
COc1cccc(Nc2nnc(SCC(=O)N3CC(=O)Nc4ccccc43)s2)c1	i	-7.2	-5.2	-23.0	3.6	0.8	-11.9	-14.2	-1.9	0.675
Cc1ccc2[nH]c(CNC(=O)c3ccccc3F)cc2c1	i	-0.5	-0.4	0.8	1.7	0.8	-0.3	11.4	6.4	0.637
COc1ccc(C)cc1NC(=O)c1cc2ccccc2cc1OCC(=O)NCc1ccco1	.	7.8	24.1	.	-59.2	0.3	.	.	.	0.781
Cc1cc(=O)oc2cc(NC(=O)C3CCCC3)ccc12	.	-2.5	8.2	-1.1	1.0	-0.6	22.4	21.8	3.2	0.689
COc1ccc(CNC(=O)CCCn2nc(C)c([N+](=O)[O-])c2C)cc1OC	i	-2.1	11.9	-0.7	5.7	-1.0	-3.5	1.1	0.9	0.725
CCOC(=O)c1nnn(-c2ccccc2)c1C	.	-9.9	-10.1	.	1.7	-0.3	.	.	.	0.632
CCN(CC)S(=O)(=O)c1ccc(C)c(NC(=O)CNc2cccc(S(=O)(=O)N3CCOCC3)c2)c1	i	-0.4	8.9	-0.5	1.8	1.1	0.9	0.9	2.0	0.651
CCn1c(SCC(=O)C(C)(C)C)nnc1-c1ccccn1	.	3.0	-9.0	.	1.6	-0.5	.	.	.	0.65
Cn1cccc1Cc1nnc(SCC(=O)N2CCc3ccccc32)n1CCc1ccccc1	i	7.3	-6.6	-8.3	1.8	-0.1	2.3	-2.3	3.2	0.752
CCS(=O)(=O)N1CCN(S(=O)(=O)c2ccccc2[N+](=O)[O-])CC1	.	3.9	-17.6	-1.0	0.6	0.1	17.4	12.1	6.7	0.662
Cc1nc2cc(NC(=O)NC(C)(C)C)ccc2n1C	i	1.5	-6.0	-0.7	-1.2	-0.1	17.3	6.8	5.1	0.715
COc1ccc(NS(=O)(=O)c2ccc(O)c(NC(=O)c3ccc(S(=O)(=O)N4CCCCCC4)cc3)c2)cc1	.	-5.9	-25.4	.	1.7	0.9	.	.	.	0.728

An excerpt from above in order of their number in rRNA inh HTS RFP, ascending.
| Molecule | MLL AF4-AF9 inh | UCH37 DUB inh | A1 inh | rRNA inh HTS | rRNA inh HTS OD600 | rRNA inh HTS RFP |
| --- | --- | --- | --- | --- | --- | --- |
| CCN(CC)S(=O)(=O)c1ccc(C)c(NC(=O)CNc2cccc(S(=O)(=O)N3CCOCC3)c2)c1 | -0.5 | 1.8 | 1.1 | 0.9 | 0.9 | 2.0 |
| Cc1cc(=O)oc2cc(NC(=O)C3CCCC3)ccc12 | -1.1 | 1.0 | -0.6 | 22.4 | 21.8 | 3.2 |
| CCS(=O)(=O)N1CCN(S(=O)(=O)c2ccccc2[N+](=O)[O-])CC1 | -1.0 | 0.6 | 0.1 | 17.4 | 12.1 | 6.7 |

The list continues:
SMILES	FGF22 binding	Beta cell apopt	T cruzi inh	MLL AF4-AF9 inh	UCH37 DUB inh	A1 inh	rRNA inh HTS	rRNA inh HTS OD600	rRNA inh HTS RFP	Ecoli growth
O=C(NC1CC1)C1CC(=O)N(c2cccc(Cl)c2Cl)C1 (centres undefined)	i	-0.9	-2.7	-14.0	3.3	0.5	0.5	4.2	-1.6	0.682
COc1cc(S(=O)(=O)NC2CCCCC2)ccc1Cl	.	.	-2.4	.	2.3	-0.5	.	.	.	0.676
CCOC(=O)c1cc2c(=O)n3ccccc3nc2n(C(C)C)c1=NC(=O)c1ccco1	.	9.7	14.6	-22.5	-177.8	-0.2	5.7	1.1	-3.6	0.716
CC(=O)N1CCCc2cc(S(=O)(=O)NC(C(=O)NCc3ccc(C)cc3)C(C)C)ccc21 (centres undefined)	.	-2.8	6.6	.	4.8	0.4	.	.	.	0.685
COC(=O)c1c(NC(=O)C2(C)Cc3ccccc3C(=O)O2)sc2c1CCCC2 (centres undefined)	.	-5.7	22.2	.	-3.1	0.1	2.7	1.1	1.9	0.71
CC1(C)CC(=O)C(C=NCCN2CCN(CC(=O)Nc3ccccc3)CC2)=C(O)C1	.	-8.3	-10.1	.	0.0	-0.1	.	.	.	0.702
[O-][n+]1onc2c1CCc1c-2nn(-c2ccccc2Cl)[n+]1[O-]	i	96.1*	-34.7	9.0	3.7	0.1	83.2	-2.5	1.1	0.703
CCOc1nc(S(=O)(=O)c2ccc(C)cc2)c(Cl)s1	.	-7.8	0.5	.	2.5	-0.1	.	.	.	0.688
Nc1ccc2c(c1)C(=O)c1cc(Cl)c(Cl)cc1-2	i	.	.	4.5	0.4	.	0.6	1.9	-4.0	0.674
CC(C)NS(=O)(=O)c1ccc(CCC(=O)N2CCCCC2)cc1	i	-3.6	-1.5	-2.4	0.8	0.2	4.0	2.8	-1.3	0.67
O=C(NCc1ccccc1Cl)C1CCC(=O)N(C2CC2)C1 (centres undefined)	i	.	-4.2	-3.5	1.2	-0.2	6.0	12.5	0.4	0.695
C/C(=N\Nc1nccnc1Cl)c1ccc(Br)cc1	i	-6.3	-13.4	2.2	.	-1.7	7.6	7.5	4.7	.
CC(=O)Nc1ccc(C(=O)NNC(=O)CCc2ccccc2)cc1	.	-1.7	0.8	.	2.7	-0.1	.	.	.	0.668
Cc1ccc(N(CCC#N)C(=O)COC(=O)C2=COCCO2)cc1	i	-7.5	-11.9	-0.4	-2.5	-1.0	0.9	3.9	1.1	0.622
COc1cc(OC)cc(-c2c(-c3cccs3)c3cc(-c4ccc(OC)c(OC)c4)ccc3n2C)c1	i	-5.3	.	6.7	0.7	0.3	10.9	15.2	3.1	0.815
CCOC(=O)Nc1sc2c(c1C#N)CCC(C)C2 (centres undefined)	.	.	10.9	.	-0.3	-0.5	.	.	.	0.771
COc1ccc(S(=O)(=O)/N=C2\C=C(Nc3ccc(O)cc3)C(=O)c3ccccc32)cc1	i	111.1*	67.1*	40.6*	.	-1.0	-45.5	-58.5	-4.8	.
O=C(CNS(=O)(=O)c1ccc(F)cc1)Nc1ccc(C(F)(F)F)cc1	.	10.7	6.4	.	1.8	0.3	.	.	.	0.713
Cc1noc(NS(=O)(=O)c2ccc(NC(=O)C(F)(F)C(F)(F)C(F)(F)F)cc2)c1C	i	.	.	-1.1	5.5	0.4	3.8	2.3	1.1	0.638
O=C(NNc1ccc([N+](=O)[O-])cc1)c1ccco1	i	-6.5	-6.7	-0.6	11.0	0.2	-0.1	11.9	-3.0	0.696
Cc1nc2c(C#N)c[nH]n2c(=O)c1CCO	i	-4.1	-13.8	-9.2	-2.3	-0.3	9.8	7.6	12.8	0.72
Cc1noc(C)c1COc1cccc(C(=O)OCCOc2ccc(F)cc2)c1	.	-8.6	0.7	.	1.7	-0.9	.	.	.	0.715
O=C(O)c1cccc(Nc2nc(-c3ccccc3)nc3ccccc23)c1	i	-5.9	-1.0	-0.6	-9.3	0.7	-32.6	-55.6	-12.2	0.656
CCN(CC)CCNC(=O)Cn1nc(-c2ccccc2)c2ccccc2c1=O	.	-0.9	-6.5	.	-1.2	0.5	.	.	.	0.727
O=C(Nc1ccc(Cl)cn1)c1ccc(Br)c(S(=O)(=O)N2CCCCC2)c1	i	-3.1	43.2	0.5	0.8	0.2	14.9	21.2	-0.3	0.728
COc1cc2c(C(=O)NCCCN3CC(C)CC(C)C3)cn(CC(C)C)c(=O)c2cc1OC (centres undefined)	.	-1.5	-4.6	.	2.8	1.6	.	.	.	0.61
Fc1cccc(Cl)c1CNCc1cccnc1	i	.	-9.1	-6.8	3.9	-0.9	3.6	4.2	0.6	0.67
CCc1nnc(NC(=O)c2cnccn2)s1	.	-1.0	-12.4	.	0.6	-0.7	.	.	.	0.766
CC(C)c1ccc(OCC(=O)N(Cc2ccccc2)c2ccccn2)cc1	i	1.6	34.7	-9.0	0.6	0.6	-40.2	-56.7	-10.8	0.669
CCn1c(C)nc2c(=O)oc3ccccc3c21	.	-0.1	-7.5	.	4.0	-0.5	.	.	.	0.66
Cc1ccc(NC(=O)C2=CC=CN3CCS(=O)(=O)N=C23)cc1	i	6.2	.	-4.6	5.5	2.2	-3.4	-5.1	1.0	0.703
CC(=O)c1ccc(S(=O)(=O)N2CCN(C)CC2)cc1	i	-6.2	-20.7	0.4	2.3	0.7	10.1	11.5	2.5	0.659
CCc1c(C)nc2ncnn2c1N1CCCC(C(=O)Nc2cc(F)ccc2C)C1 (centres undefined)	.	5.0	14.0	.	5.0	-0.5	.	.	.	0.748
COc1ccccc1OCC(=O)N1CCCC(Nc2ccc(C)c(C)c2)C1 (centres undefined)	i	.	-3.5	6.7	-0.9	0.2	-4.2	-10.0	2.7	0.669
O=C(Nc1cccc2cccnc12)c1ccc(Br)o1	.	4.6	8.9	.	1.1	-0.6	.	.	.	0.648
COc1ccc(CCNS(=O)(=O)c2ccc3c(c2)NC(=O)CCS3)cc1OC	i	-3.8	11.8	-0.2	5.6	0.9	1.9	-1.8	-0.1	0.718
COc1ccc(S(=O)(=O)Nc2cc3c4c(c2)CCC(=O)N4CCC3)cc1C	i	8.5	-6.1	1.8	5.0	-0.2	-21.6	-21.1	6.8	0.681
CCCCC(=O)N/N=C(/C)C1=C(C)C(C)(C)OC1=O	i	-3.8	-11.5	-0.3	.	0.1	-0.9	4.6	-2.1	.
Cc1cccc(NC(=O)CCN2CCOCC2)c1	.	-1.9	12.1	.	1.1	1.3	.	.	.	0.695
CCN1C=CC2=C(C#N)C(N)C(C#N)(C#N)C(c3ccccc3C(F)(F)F)C2C1 (centres undefined)	.	1.6	24.9	.	11.8	1.4	.	.	.	0.707

An excerpt (hit frequency here may not be typical).
